NPYLR7 ag – activates Aedes aegypti NPYLR7 receptor; HEK293T NPYLR7/Galpha15, GCaMP6s calcium fluorescence; AID 1259423; 0.15% of 270,000 active; activation, % at 10 µM; in the data active = activation above about 40%;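 also: 0% = vehicle and 100% = reference agonist at the receptor; some compounds past the cut are filed as inactive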
NPYLR7 ag max-min – also measured in NPYLR7 ag; calls as there; activation, %; measured here: Max-Min RFU normalised activation; some inactives read as strong as hits;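 span of the calcium signal over five minutes; 0% = vehicle and 100% = native peptide agonist; compound fluorescence can raise it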
* marks the source's active call; other numbers are inactive results; & = joins results of further samples. Some of the compounds tested, so the mix of outcomes need not match the whole.

| compound | NPYLR7 ag | NPYLR7 ag max-min |
| --- | --- | --- |
| CCC1=NC2=C(C(=O)CC(C)(C)C2)C(c2cccc(Oc3ccccc3)c2)C1 (stereo not drawn) | 0 | -4 |
| COc1ccc(Cc2nnc(SCC(=O)Nc3c(C)cccc3C)[nH]c2=O)cc1 | -9 | -9 |
| O=C(CC1CCCC1)N1CCCN(CCN2CCOC2=O)CC1 | 8 | 5 |
| COc1ccc(CC2CCN(S(=O)(=O)c3c(C)c(C)c(C)c(C)c3C)CC2)cc1 | 41 | 26 |
| O=C(c1ccc(Cl)cc1Cl)N(Cc1ccc(F)cc1)Cc1nc2cc(Cl)ccc2o1 | 9 | 6 |
| COc1cc2c(cc1OC)C(c1c(F)cccc1Cl)N(C(=O)Nc1ccccc1C)CC2 (stereo not drawn) | 17 | 8 |
| Cc1ccc(CNc2oc(-c3ccc(S(=O)(=O)N4CCCC4)cc3)nc2C#N)cc1 | -2 | 14 |
| CC(=O)NC(CC(=O)N1CCCc2c(F)cc(F)cc21)c1cccs1 (stereo not drawn) | 0 | -2 |
| COc1ccc(CCN2CC3=C(C2=O)C(c2cccc(C)c2)NC(=O)N3)cc1 (stereo not drawn) | 15 | 17 |
| COc1ccccc1C1C(C#N)=C(C)NC2=C1C(=O)CC(c1ccccc1)C2 (stereo not drawn) | 6 | 5 |
| COc1ccc(-c2nc(C#N)c(NCCc3ccccc3)o2)cc1 | 0 | -5 |
| O=c1cc(C(F)(F)F)[nH]n1-c1nc2ccccc2s1 | -4 | -4 |
| COCC(C)N(Cc1ccc2c(c1)OCO2)C(=O)c1csc(C)n1 (stereo not drawn) | -1 | 9 |
| O=C(CSc1ncnc2sc3c(c12)CCC3)N1CCCC1 | 0 | -1 |
| COc1ccc2c(c1)-c1c(sn(-c3ccccc3OC)c1=S)C(C)(C)N2 | -2 | -4 |
| NC(=O)c1nc(-c2ccc([N+](=O)[O-])cc2)nc2c1[nH]c(=O)n2-c1ccccc1F | 29 | 12 |
| O=C(OCc1nc(C(=O)Nc2ccc(Cl)cc2)cs1)c1ccccc1 | -6 | -13 |
| CSC1CCCCN(CCC(=O)Nc2ccccc2F)C1 (stereo not drawn) | -1 | -1 |
| Cc1c(C)c(C)c(S(=O)(=O)NCCC(=O)NCC2CCCC2)c(C)c1C | 8 | 2 |
| CS(=O)(=O)NC1CCCN(C2c3ccccc3-c3ccccc32)C1 (stereo not drawn) | 1 | -1 |
| Cc1cc(=O)[nH]c(-n2nc(C)c(CCC(=O)NCCCOC(C)C)c2C)n1 | 1 | -2 |
| CCOc1ccccc1NC(=O)c1c(NC(=O)c2ccccc2)sc2c1CCCC2 | 0 | -2 |
| O=C(CC(c1ccccc1)c1ccc2c(c1)OCO2)N1CCSCC1 (stereo not drawn) | -8 | -10 |
| Cn1cc(C(=O)NC2CCN(C(=O)CC3C=CCC3)CC2)cn1 (stereo not drawn) | 6 | 1 |
| c1nc2ccc(Cc3ccc4nc[nH]c4c3)cc2[nH]1 | 1 | 3 |
| O=C(CN1CCC2(CC1)NC(=O)N(Cc1ccccc1)C2=O)N1CCOCC1 | 17 | 10 |
| O=C(NC(=S)N1CCN(CCO)CC1)C12CC3CC(CC(C3)C1)C2 | 10 | 10 |
| O=C(c1cc(C2CC2)[nH]n1)N1CCCC(O)(CO)CC1 (stereo not drawn) | 3 | 3 |
| Cc1noc(-c2ccncc2)c1C(=O)NCCCN(C)c1ccccc1 | 1 | 0 |
| CC(C)CCc1nc(N2CCCN(C(=O)c3cccc(F)c3)CC2)c2cnn(-c3cccc(Cl)c3)c2n1 | 20 | 17 |

Some values from the list.
Value of `CSC1CCCCN(CCC(=O)Nc2ccccc2F)C1` (stereo not drawn) in NPYLR7 ag: -1
Value of `O=C(c1ccc(Cl)cc1Cl)N(Cc1ccc(F)cc1)Cc1nc2cc(Cl)ccc2o1` in NPYLR7 ag: 9

Not a retest: entries from further up.
| compound | NPYLR7 ag | NPYLR7 ag max-min |
| --- | --- | --- |
| CCC1=NC2=C(C(=O)CC(C)(C)C2)C(c2cccc(Oc3ccccc3)c2)C1 (stereo not drawn) | 0 | -4 |
| COc1ccc(Cc2nnc(SCC(=O)Nc3c(C)cccc3C)[nH]c2=O)cc1 | -9 | -9 |
| O=C(CC1CCCC1)N1CCCN(CCN2CCOC2=O)CC1 | 8 | 5 |

Continued:
| compound | NPYLR7 ag | NPYLR7 ag max-min |
| --- | --- | --- |
| Cc1ccc(NC(=O)C(C)n2c(=S)[nH]c3ccccc3c2=O)nc1 (stereo not drawn) | 0 | -2 |
| Cn1ccnc1-c1c(-c2ccccc2)ncn1CC1CNCCO1 (stereo not drawn) | 12 | 7 |
| O=C(c1cnc(Nc2ccccc2)nc1)N1CCOC(C(F)(F)F)C1 (stereo not drawn) | 30 | 25 |
| CCCOc1ccc(-c2c(=O)n(O)c3ccccc3[n+]2[O-])cc1 | 6 | 2 |
| COC(=O)c1c(C)c(C(=O)C(C)N(C)S(=O)(=O)c2cccc(C(F)(F)F)c2)c(C)n1C (stereo not drawn) | -11 | -1 |
| O=C(c1ccc([N+](=O)[O-])o1)N1CCC(Cc2ccc(-n3cccc3)cc2)CC1 | 1 | 5 |
| O=C(NC(C(=O)NC1CC1)C1CCN(C(=O)Cc2ccccc2)CC1)c1ccccc1 (stereo not drawn) | 6 | 7 |
| CCC(c1cccnc1)N(C)Cc1sccc1C (stereo not drawn) | -5 | -9 |
| CCN(CC)C(=O)c1cc2c(=O)n3cccc(C)c3nc2s1 | 8&10 | 0&6 |
| C#Cc1ccc(Oc2ccccc2)cc1 | -3 | 2 |
| O=C(CCNC(=O)c1cccc2cnccc12)Nc1cc(F)ccc1F | 0 | 1 |
| O=C(Nc1nc2ccc([N+](=O)[O-])cc2s1)C1CCCCC1 | -3&-3 | -9&-6 |
| Oc1ccc(CN2CCCC(N3CCN(c4ccccc4F)CC3)C2)c2ccccc12 (stereo not drawn) | 1 | -1 |
| O=C(O)C[C@@H]1CCNC[C@@H]1Cc1cc(CSc2ccccc2)on1 | -10 | -15 |
| COc1ccc(-c2c(C#N)c(N)nc3sc(C(=O)c4ccc(Cl)cc4)c(N)c23)cc1 | 6 | 3 |
| CCN1C(=O)C2(SCCN2C(=O)c2ccc(Cl)cc2)c2cc(F)ccc21 (stereo not drawn) | 3 | 8 |
| Cc1ccccc1COc1cn(CC(=O)NCCc2ccccc2)c(C)cc1=O | 1 | 0 |
| Oc1cccc(Nc2nc(N3CCOCC3)c3ccccc3n2)c1 | 6 | 9 |
| CC(C)(C)c1ccc(COc2coc(CN3CCCN(C(=O)c4ccc(Cl)nc4)CC3)cc2=O)cc1 | -1 | -3 |
| O=C1NC(=S)N/C1=C/c1ccccc1OCc1ccccc1F | -8 | -10 |
| NC(=O)c1c(NC(=O)COC(=O)c2cc3c(s2)CCC3)sc2c1CCC2 | 0 | 46 |
| O=C(NCc1cccs1)c1nn2c(C(F)(F)F)cc(-c3ccc(Br)cc3)nc2c1Cl | -4 | -13 |
| O=C(NCc1ccccn1)c1nn(-c2ccc(Cl)cc2)c(=O)n(Cc2cccc(Cl)c2)c1=O | 8 | 14 |
| CO[C@@H]1CC[C@H]2C[C@@H]1[C@@H](Oc1ccccn1)CN2C(=O)OCc1ccccc1 | 25 | 33 |
| CN(C)CCNP1(=O)C=C(c2ccccc2)SC(c2ccccc2)=C1 | 3 | 8 |
| O[C@@H]1CN(Cc2cccc3nsnc23)CC[C@H]1c1ccc2c(c1)OCO2 | 2 | 0 |
| CN(Cc1cccs1)C(=O)c1cc(CN2CCC(O)CC2)on1 | 9 | 1 |
| CC1(C(=O)NS(=O)(=O)c2cccs2)CCN1C(=O)Cc1ccc(Cl)cc1Cl (stereo not drawn) | 8 | 4 |
| COC(=O)c1c(SCc2cc3c(cc2Br)OCCO3)nc(=O)[nH]c1C | 16 | 14 |
| Cc1ccc(-c2nccn2CCCO)c(Cl)c1Cl | 2 | 0 |
| COC(=O)CN1CCN(c2ccc(S(=O)(=O)N3CCOCC3)cn2)CC1 | -2 | -3 |
| COCCN(CC(=O)N(CCc1c[nH]c2ccccc12)Cc1ccc(N(C)C)cc1)C(=O)c1cc(Cl)cc(Cl)c1 | 16 | 15 |
| COC(=O)c1c(NC(=O)CSc2nnc3sc4ccccc4n23)sc2c1CCCC2 | -5 | -7 |
| O=C(C1CCCN(c2nc3nonc3nc2N2CCCCCC2)C1)N1CCOCC1 (stereo not drawn) | 7 | 5 |
| CC(C)NC(=O)Nc1ccc(N(C)C)c(CN(C(=O)C2CC2)C2CCCCC2)c1 | 13 | 20 |
| COc1cc(C2=NC(=Cc3ccc(F)c(Br)c3)C(=O)O2)cc(OC)c1OC | 0 | -2 |
| COc1ccc(CN2CCCn3cccc3C2c2ccc(Cl)c(Cl)c2)cc1O (stereo not drawn) | -1 | 6 |
| O=S(=O)(c1ccc2c(c1)nc(SCc1cccc(F)c1F)n2C1CCCC1)N1CCCC1 | 8 | -1 |
| Cc1cc(CN(C)C(=O)CC(c2ccccc2)c2ccc3c(c2)OCO3)n[nH]1 (stereo not drawn) | 2 | -1 |
| CC(C)=CCn1cnc2c1c(=O)n(C)c(=O)n2C | 1 | 0 |
| COc1ccccc1CCNCc1c(C(=O)N2CCCCCC2)nc2cc(C)ccn12 | 3&1 | -5&4 |
| COc1ccc(/C=N\N=C2\CC(C)(C)Cc3n[nH]c(=O)cc32)cc1OC | -10 | -18 |
| CC(=O)Nc1ccc(Nc2cc(C)nc3c(-c4ccccc4)cnn23)cc1 | -2 | -6 |
| COc1ccc(C2c3sc(=S)[nH]c3SC3C(=O)N(c4ccc(C)cc4)C(=O)C32)cc1 (stereo not drawn) | -7 | -11 |
| CCc1nc2c(OCCOC)cccn2c1N(C)C(=O)Nc1ccccc1OC | -10 | -16 |
| CCc1cccc(C)c1NC(=O)Cn1nc(-c2ccccc2)c2sc(N3CCOCC3)nc2c1=O | -1 | -7 |
| Cc1cccc(-n2nc3c(c2NC(=O)C(C)C)CSC3)c1 | -4 | -6 |
| CN1C(=C2C=NN(C)P2(=O)N2CCCCCC2)C(C)(C)c2ccccc21 (stereo not drawn) | 8 | 14 |
| CS(=O)(=O)c1ccc(Nc2nc(C(=O)NCc3cccnc3)cs2)cc1 | -1 | -4 |
| COc1ccc(C)cc1NC(=O)CN1CCCC(C(F)(F)F)C1 (stereo not drawn) | 13 | 8 |
| CCN(CC)c1c(C)nc2ccc(C(=O)N3CCN(C)CC3)cn12 | -4 | -9 |
| Cc1nc(C(F)(F)F)ccc1C(=O)N1CCCC1(C)C(=O)NCC(C)C (stereo not drawn) | 6 | 2 |
| CN(Cc1nnc(-c2ccccc2)o1)C(=O)c1cn(CCN2CCCCC2)nn1 | 30 | 16 |
| CCC1CCN(C(=O)c2ccc(NC(=O)NC(C)C)cc2)C1 (stereo not drawn) | 6 | 3 |
| O=C(c1cc(-c2ccccc2)nn1-c1cccc(Cl)c1)N1CCN(c2ccccc2Cl)CC1 | 16 | 15 |
| CCOC(=O)[C@@H]1[C@@H](O)C(=O)N(Cc2ccccc2)C12CCN(C(=O)c1cc(C)oc1C)CC2 | 1 | 12 |
| CCC(NC(=O)Cc1cc(=O)[nH][nH]c1=O)c1nc(C)c(C)s1 (stereo not drawn) | 6 | 1 |
| COc1ccc(-n2ncc(Oc3ccc4c(c3)CCC4)c(Nc3cccc(C(=O)NCc4ccncc4)c3)c2=O)cc1 | 6 | 9 |

Rewritten with values under each structure: three of the compounds above.
Order of values – NPYLR7 ag	NPYLR7 ag max-min
- CC(C)NC(=O)Nc1ccc(N(C)C)c(CN(C(=O)C2CC2)C2CCCCC2)c1
    13	20
- COc1cc(C2=NC(=Cc3ccc(F)c(Br)c3)C(=O)O2)cc(OC)c1OC
    0	-2
- COc1ccc(CN2CCCn3cccc3C2c2ccc(Cl)c(Cl)c2)cc1O (stereo not drawn)
    -1	6

Single records, as listed above. Order of screens: NPYLR7 ag	NPYLR7 ag max-min
`Cc1cc(=O)[nH]c(-n2nc(C)c(CCC(=O)NCCCOC(C)C)c2C)n1` is listed as 1	-2
`CN(C)CCNP1(=O)C=C(c2ccccc2)SC(c2ccccc2)=C1` is listed as 3	8
`CC(C)CCc1nc(N2CCCN(C(=O)c3cccc(F)c3)CC2)c2cnn(-c3cccc(Cl)c3)c2n1` is listed as 20	17
